HCMV NEC inh: disrupts HCMV UL50-UL53 complex binding; HTRF UL50-UL53 interaction, normalized percent inhibition; inhibition, % (concentration not given with the values); hit rate 0.15% among 190,000; AID 1918969;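 active means both replicates at 50% or more, plus weaker picks with an unusually low signal ratio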;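 further: stock transfer was 100 nL into about 20 µL; 0% = negative control wells and 100% = wells with untagged competitor protein; inactives centre near -12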
GIV Gai3 FP: GIV-Galpha-i interaction inhibition | Galpha-i3/FITC-GIV peptide fluorescence polarization, 90 min; active compounds read low; scaled: aluminum fluoride 0%, vehicle 100% | percent of control (FP), % (test concentration not listed) | hit rate 0.42% among 210,000;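 active means replicate mean at 85% of control or lower, very high polarization wells dropped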;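 further: lower values mean more displacement of the GIV peptide from Galpha-i3; wells of about 15 µL received 100 nL stock; the first replicate is given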
Target sequence (P08753 whole entry, looked up): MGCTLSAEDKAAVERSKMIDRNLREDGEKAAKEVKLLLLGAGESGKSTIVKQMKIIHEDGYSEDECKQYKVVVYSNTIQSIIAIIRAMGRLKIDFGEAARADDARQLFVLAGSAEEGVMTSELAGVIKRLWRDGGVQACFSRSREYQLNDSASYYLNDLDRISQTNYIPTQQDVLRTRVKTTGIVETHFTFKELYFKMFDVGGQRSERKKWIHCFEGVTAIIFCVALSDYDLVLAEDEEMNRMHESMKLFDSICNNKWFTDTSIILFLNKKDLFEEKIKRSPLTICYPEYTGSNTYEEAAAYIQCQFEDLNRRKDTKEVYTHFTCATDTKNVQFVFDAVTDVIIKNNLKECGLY
Sa growth inh: S. aureus growth inhibition; AID 720641; S. aureus RN4220 growth, OD600, 20 h, 42 °C; active compounds read low; relative growth, % (concentration not given with the values); hit rate 0.53% among 170,000;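 active means growth at 42 °C up to 50% and 20 or more points under that at 30 °C, or under 10% at both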;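 further: 300 nL library stock went into each well; scaled to the means of positive and negative controls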
Sa growth inh second temp: also measured in Sa growth inh; calls as there; relative growth, %; measured here: growth at 30 °C;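 optical density after 20 h as mean of two plates; 100% = untreated growth and lower means inhibition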
Numbers without * were called inactive; / = no result given.

A first look (2 entries):
SMILES	HCMV NEC inh	GIV Gai3 FP	Sa growth inh	Sa growth inh second temp
C=C1C(C(=O)Nc2ccc(N(C)C)cc2)C1C(=O)Nc1ccc(N(C)C)cc1 (stereo not drawn)	-10.6	99.5	115.7	107.6
O=C1NC(=S)NC(=O)C1=Cc1ccccc1OCCOc1ccc([N+](=O)[O-])cc1	-62.2	97.1	/	/

This part in full (from the top)
SMILES	HCMV NEC inh	GIV Gai3 FP	Sa growth inh	Sa growth inh second temp
C=C1C(C(=O)Nc2ccc(N(C)C)cc2)C1C(=O)Nc1ccc(N(C)C)cc1 (stereo not drawn)	-10.6	99.5	115.7	107.6
O=C1NC(=S)NC(=O)C1=Cc1ccccc1OCCOc1ccc([N+](=O)[O-])cc1	-62.2	97.1	/	/
CCCCN(CCCC)CCNC(=O)c1cn(C)c2ccc(S(=O)(=O)N3CCOCC3)cc2c1=O	-27.7	102.5	104.1	90.1
CSc1nc(-c2ccccc2)nc2c1Cc1c(CO)cnc(C)c1O2	/	98.0	85.9	87.1
Cc1ccc2nc(CN(Cc3ccc(C(C)C)cc3)CC(C)C)cc(=O)n2c1	-27.0	106.9	/	/
O=C(CCn1c(=O)c2cccn2c2cccnc21)NCCCc1ccccc1	-23.2	104.9	93.3	88.2
CC(C)c1ccc(NC(=O)CSC(=O)c2ccccc2)cc1	-24.8	/	99.1	84.2
C=CCn1c(=O)c(C(=O)NCc2ccc3c(c2)OCO3)c(O)c2ccccc21	-23.4	99.9	/	/
Cc1oc2c(F)c(F)c(F)c(F)c2c1-c1noc(C(C)(C)C)n1	-4.1	111.0	102.9	103.8
O=C(NC1CCS(=O)(=O)C1)c1cc(-c2ccccc2)nc2ccccc12 (stereo not drawn)	-44.4	/	107.1	67.9
CC1=C(C(=O)OC2CCCCCCC2)C(c2ccc(Cl)c(Cl)c2)NC(=O)N1 (stereo not drawn)	-15.7	/	97.1	90.7
COc1c(CC(NC(C)=O)C(=O)O)cccc1OCC1CCCC1 (stereo not drawn)	-2.1	198.0	111.2	101.5
O=C(O)c1ccc(NS(=O)(=O)c2cccc3cccnc23)cc1	-7.4	102.4	100.6	94.8
CC1=C(C(=O)OC2CCCCCCC2)C(c2ccccc2C(F)(F)F)CC(=O)N1 (stereo not drawn)	/	100.1	89.9	88.6
CNC(=O)/C(C#N)=C\c1ccc(Sc2ccccc2)o1	-67.6	101.3	90.5	98.0
O=C(c1cn(CCOc2ccc(Cl)cc2)c2ccccc12)C1CCCCC1	-27.7	100.5	65.7	84.2
O=c1cc(CN2CCc3ccccc3C2)nc2nc(NCc3ccccc3)[nH]n12	-20.6	100.0	/	/
COc1ccc(CCNC(=O)C2CCN(S(=O)(=O)N3CCCCC3)CC2)cc1OC	-12.5	101.9	103.3	88.6
Cc1ccc(S(=O)(=O)NC(C(=O)O)C(C)C)cc1C (stereo not drawn)	-33.7	/	91.6	89.5
Cc1cc2c(=O)oc(-c3cccc4ccccc34)nc2s1	-25.1	/	100.4	82.7
COc1ccc(S(=O)(=O)n2c(=O)cnc3ccccc32)cc1	-30.4	/	76.9	87.1
O=C1Cn2c(nc3ccccc3c2=O)CN1Cc1ccc2c(c1)OCO2	-5.5	/	101.3	92.2
CC(c1ccccc1)N1C(=O)CSC1=S (stereo not drawn)	-10.9	106.3	96.5	82.6
O=S(=O)(c1ccccc1)c1ccc(S(=O)(=O)N2CCCC2)s1	-8.6	98.4	99.0	74.2
CC(C)c1ccc(-c2noc(C3CCCN(S(C)(=O)=O)C3)n2)cc1 (stereo not drawn)	8.6	107.5	86.9	87.9
Cc1ccc(NC(=O)COc2cccc3ccc(N4CCCC4)nc23)cc1	-35.5	104.7	/	/
COc1ccc(COc2ccc(=O)n(-c3ccc(C(=O)Nc4ccc(OC)c(Cl)c4)cc3)n2)cc1	-10.3	107.2	/	/
COC(=O)CSC(C)c1nc2ccccc2c(=O)[nH]1 (stereo not drawn)	-6.9	/	80.3	97.6
CN(C)S(=O)(=O)c1ccc(C(=O)Nc2c(C(=O)Nc3ccccc3F)oc3ccccc23)cc1	3.6	116.2	108.8	95.8
CC1CC(=O)N(CC(=O)NCc2ccc(F)cc2)c2ccccc2S1(=O)=O (stereo not drawn)	-26.4	102.1	93.3	84.7

Twelve consecutive records from above:
SMILES	HCMV NEC inh	GIV Gai3 FP	Sa growth inh	Sa growth inh second temp
O=C(c1cn(CCOc2ccc(Cl)cc2)c2ccccc12)C1CCCCC1	-27.7	100.5	65.7	84.2
O=c1cc(CN2CCc3ccccc3C2)nc2nc(NCc3ccccc3)[nH]n12	-20.6	100.0	/	/
COc1ccc(CCNC(=O)C2CCN(S(=O)(=O)N3CCCCC3)CC2)cc1OC	-12.5	101.9	103.3	88.6
Cc1ccc(S(=O)(=O)NC(C(=O)O)C(C)C)cc1C (stereo not drawn)	-33.7	/	91.6	89.5
Cc1cc2c(=O)oc(-c3cccc4ccccc34)nc2s1	-25.1	/	100.4	82.7
COc1ccc(S(=O)(=O)n2c(=O)cnc3ccccc32)cc1	-30.4	/	76.9	87.1
O=C1Cn2c(nc3ccccc3c2=O)CN1Cc1ccc2c(c1)OCO2	-5.5	/	101.3	92.2
CC(c1ccccc1)N1C(=O)CSC1=S (stereo not drawn)	-10.9	106.3	96.5	82.6
O=S(=O)(c1ccccc1)c1ccc(S(=O)(=O)N2CCCC2)s1	-8.6	98.4	99.0	74.2
CC(C)c1ccc(-c2noc(C3CCCN(S(C)(=O)=O)C3)n2)cc1 (stereo not drawn)	8.6	107.5	86.9	87.9
Cc1ccc(NC(=O)COc2cccc3ccc(N4CCCC4)nc23)cc1	-35.5	104.7	/	/
COc1ccc(COc2ccc(=O)n(-c3ccc(C(=O)Nc4ccc(OC)c(Cl)c4)cc3)n2)cc1	-10.3	107.2	/	/

Continuation:
SMILES	HCMV NEC inh	GIV Gai3 FP	Sa growth inh	Sa growth inh second temp
CCN(Cc1ccccc1)C(=O)c1cc2c(=O)n3ccccc3nc2n1C	-49.5	102.2	/	/
Cc1cc(C)c(NC(=O)CCn2nnc3ccccc32)c(C)c1	4.4	108.3	87.9	110.2
Cc1cccc(OCC(=O)Nc2ccccc2C(=O)OCc2cc(=O)n3nc(C)sc3n2)c1	/	102.3	80.2	87.8
CN1CCc2c(sc3c2CN(C(=O)Nc2ccc4c(c2)OCCO4)C(c2ccc(F)cc2)c2cccn2-3)C1 (stereo not drawn)	-8.6	110.5	/	/
O=C(Nc1ccc2c(c1)CCC2)C1CC(=O)N(CCc2c[nH]c3ccc(Cl)cc23)C1 (stereo not drawn)	-11.8	102.1	/	/
Cc1ccc2onc(CC(=O)N3CCN(c4cccc(Cl)c4)CC3)c2c1	9.0	103.2	82.6	73.6
O=C(Nc1nc2c(F)cc(F)cc2s1)c1ccc(S(=O)(=O)N2CCc3ccccc32)cc1	/	98.3	84.8	80.3
Cn1c(=O)c2sccc2n2c(CCC(=O)Nc3ccc(F)cc3)nnc12	2.4	102.9	94.0	85.9
CCc1c(C)c2c(C)nn(-c3ccccc3)c2[nH]c1=O	-9.6	97.1	101.6	92.1
CC(C)(C)OC(=O)N1CCC(c2c(C(=O)N3CCN(C(=O)c4ccco4)CC3)cnn2-c2cccc(F)c2)CC1	/	108.3	118.8	96.7
NNC(=O)Cn1c2ccccc2c2nc3ccccc3nc21	-38.4	102.3	/	/
Cc1cc(-c2nnc3sc(COc4ccc(Br)cc4)nn23)n[nH]1	-15.5	105.2	/	/
CC(C)(C)C(=O)Nc1nc(-c2ccc(Cl)s2)cs1	19.5	/	84.0	103.7
Cc1ccc(CNC(=O)Cn2c(=O)n(Cc3ccccc3)c(=O)c3ccccc32)cc1	-22.0	104.3	/	/
CCOC(=O)N1CCN(CN2C(=O)NC(c3ccccc3)(c3ccccc3)C2=O)CC1	-25.8	/	90.4	82.5
CC1Cc2ccccc2N1C(=O)COc1ncnc2c1cnn2-c1ccccc1 (stereo not drawn)	-38.0	/	117.6	82.5
COc1ccc(C)cc1NC(C)C(=O)NC(=O)NC1CCCCC1 (stereo not drawn)	-18.5	/	108.0	89.7
COc1ccc(C2CC(=O)c3c([nH]c(C(=O)OCc4ccccc4)c3C)C2)cc1OC (stereo not drawn)	-3.5	102.7	109.4	100.0
Clc1ccc(C2Nc3ccccc3-n3cccc32)cc1 (stereo not drawn)	4.6	105.2	104.2	107.4
CC1CCN(c2cc3c(cc2F)c(=O)c(S(=O)(=O)c2cccc(Cl)c2)cn3Cc2ccccc2)CC1	/	104.8	95.0	95.1
CCN(CC)C(=O)CSc1nc2c(c(=O)n(C)c(=O)n2C)n1Cc1ccccc1	-25.7	106.9	109.0	87.9
CC1=C(C(=O)Nc2cc(C)ccn2)C(c2ccsc2)C2=C(CC(C)(C)CC2=O)N1 (stereo not drawn)	-4.3	101.9	/	/
CCc1ccc(NCc2cc3cc(OC)c(OC)cc3n(CC(=O)Nc3cc(C)ccc3C)c2=O)cc1	/	91.3	98.8	88.8
CC1CCN(S(=O)(=O)c2ccc(C(=O)Nc3c(C(N)=O)oc4ccccc34)cc2)CC1	12.1	106.6	106.2	97.4
COc1cc2c(cc1OC)C(C)N(CCC(N)=O)CC2 (stereo not drawn)	/	100.4	91.6	88.2
COCCn1c(SCC(=O)N2CCNC2=O)nc2ccccc21	-25.5	/	89.2	94.3
O=C(Nc1cccc(F)c1)c1ccc2cnn(Cc3cccc(F)c3)c2c1	-42.3	105.1	/	/
CCOc1cc(C2C(C#N)=C(N)Oc3n[nH]c(-c4cccc([N+](=O)[O-])c4)c32)ccc1OC (stereo not drawn)	-56.7	103.8	/	/
CCN1c2ccccc2-c2nc(SCC(=O)Nc3cc(OC)cc(OC)c3)ncc2S1(=O)=O	/	100.4	91.0	90.8
COC(=O)c1ccccc1NC(=O)C1CCCN(c2ncnc3onc(C)c23)C1 (stereo not drawn)	/	101.6	83.1	83.2
CC12CCC(=O)N1C(C(=O)N1CCN(S(=O)(=O)c3ccc(F)cc3)CC1)CS2 (stereo not drawn)	-24.9	/	80.0	84.3
CCc1ccccc1NS(=O)(=O)c1ccc2c(c1)N(C(C)=O)CCS2	-13.7	105.9	/	/
CC(C)c1nc2ccc(C(=O)NCc3ccccc3Br)cc2o1	/	100.6	84.6	85.8
O=C(NCCN1CCN(c2ccccc2)CC1)Nc1cccc(Br)c1	-6.7	104.3	104.7	82.2
CCSc1nc2c([nH]c3ccccc32)c(=O)n1CC	/	106.4	115.2	95.3
O=C(Nc1ccccc1Br)c1cc(S(=O)(=O)NC2CCCCC2)ccc1F	/	106.0	92.3	77.5
COc1ccc(C(=O)Nc2ccc(S(=O)(=O)N(Cc3ccccc3)c3ccccc3)cc2)cc1	-27.2	100.1	90.6	85.1
CCOC(=O)c1cnn(-c2ccccc2)c1N(C(=O)c1ccccc1F)C(=O)c1ccccc1F	/	96.1	95.0	79.4
N#Cc1nc(-c2ccccc2F)oc1N1CCN(c2ccccc2)CC1	-3.5	94.0	125.4	94.8
Cc1cc(C(=O)N/N=C/c2[nH]ncc2Cl)no1	-21.0	104.1	95.5	91.0
COc1ccccc1C(C)NCC(=O)Nc1ccccc1C#N (stereo not drawn)	-23.4	/	86.3	89.5
COc1ccccc1NC(=O)CSc1nc2ccccc2c(=O)n1CCC(=O)NC1CCCCC1	/	104.1	102.1	91.7
COc1cccc(-n2c(C)c3c(C)nnc(C)c3c2C)c1	-52.5	109.9	100.0	70.4
COC(=O)C1=CNC=C(C(=O)OC)C1c1ccc(C)s1	-11.9	98.8	87.8	86.8
COc1ccccc1NC(=O)Cn1c(=O)n(-c2ccccc2)c(=O)c2c3c(sc21)CN(C(C)=O)CC3	0.4	105.8	93.7	92.6
CCOC(=O)c1cn(CC)c2ccc(S(=O)(=O)N3CCc4ccccc4C3)cc2c1=O	/	99.1	96.0	83.1
Clc1ncccc1N=Cc1cccc(Br)c1	-12.2	/	113.1	93.9
CCc1ccc(NC(=O)c2sc3nc(-c4ccccc4)cn3c2C)cc1	/	114.1	101.3	101.0
O=C(NCc1ccccc1)c1cc2sccc2n1Cc1ccc(Cl)cc1	-22.9	96.9	99.6	91.2
Cc1ccc(C)c(S(=O)(=O)c2cn(C)c3cc(F)c(F)cc3c2=O)c1	-34.6	103.3	91.2	82.9
COC(=O)c1ccc(COc2ccc3ccccc3c2)o1	/	101.2	101.5	89.6
C=CCSc1nc2c(c(-c3ccc(C)o3)c1C#N)CCCC2	/	106.6	91.0	94.7
CCC(C)S(=O)(=O)c1oc(-c2ccc(F)cc2)nc1S(=O)(=O)c1ccc(F)cc1 (stereo not drawn)	-22.7	105.5	14.8*	37.5*
O=C(Nc1ccc(F)c(F)c1)c1cnn(-c2ccccc2)n1	-26.5	/	72.2	87.0
Cc1cccc(OCCNCCO)c1C	8.8	102.4	92.3	107.2
O=C(NCc1ccc(Cl)cc1)c1ccc(CN2CCOCC2)cc1	-9.5	100.5	104.8	77.3
CC(C)c1ccc(NC(=O)CSC2=Nc3ccccc3C3=NC(CCC(=O)NCc4cccs4)C(=O)N23)cc1 (stereo not drawn)	/	103.8	95.3	103.0
C[n+]1cc(C(=O)NCCC[N+]2(C)CCCC2)ccc1/C=N/O	/	97.8	97.6	93.1
COc1ccc(C2=Nc3ccccc3SC(C(=O)O)C2)cc1 (stereo not drawn)	-46.1	100.5	90.5	86.2
CS(=O)(=O)n1nc(-c2ccco2)nc1NCc1ccccc1Cl	-13.3	102.3	97.0	88.5
O=C1C2ON(c3ccc(Cl)cc3)C(c3ccc(F)cc3)C2C(=O)N1Cc1ccccc1 (stereo not drawn)	/	96.7	92.5	88.4
CCN1CCN(c2cc(C(=O)O)c3cc(NS(=O)(=O)c4ccccc4Cl)ccc3n2)CC1	-62.5	102.0	/	/
Cc1cnc(C)c(N2CCC(C(=O)NCC3CC3)CC2)n1	-13.2	103.0	93.1	91.2
